High-throughput results deposited in PubChem by National Center for Advancing Translational Sciences (NCATS).
2A StopGo: High Throughput Screening for Foot and Mouth Disease Virus Antivirals; human cells with a luciferase reporter of 2A StopGo recoding; control for the full effect not named in the record; Potency, µM (series often up to 57.9 µM), for the others: at the highest dose signal change, negative = less light; 410,000 tested, 1.2% active; AID 1159524, 2015; active = well fitted falling curve with a large enough effect; inconclusive = small, poorly fitted or top-dose-only effect; inactive = no such curve, though single readings can be large or run the other way; tested in HEK293T cells; further: on the % scale 0 is the no-effect control and ±100 the full control effect; nearly all actives have a fitted effect of over 45% in size; luciferase light after 4 h
MARV entry inh: qHTS for inhibitors of binding or entry into cells for Marburg Virus | Marburg virus pseudotyped entry inhibition, cell reporter; control for the full effect not named in the record; about a third of the inactives were read at about 46 µM | Potency, µM (series often up to 37.8 µM), inactives show at the highest dose activity change, negative = inhibition, most hits filed as inhibitors | 300,000 tested, 1.8% active; active = well fitted inhibition curve with a large enough effect; inconclusive = small, poorly fitted or top-dose-only effect, or effect the other way; inactive = flat fitted curve, though single readings scatter; tested in HEK293 cells; about a fifth of its hits are not listed in these tables; further: on the % scale 0 is the no-effect control and ±100 the full control effect; luciferase read-out
SARS PLpro yeast: qHTS of Yeast-based Assay for SARS-CoV PLP. S. cerevisiae expressing SARS-CoV PLpro, growth rescue; control for the full effect not named in the record. Potency, µM (highest dose often 32.9 µM), inactives show at the top dose activity, positive = growth rescue. 330,000 tested, 0.19% active. AID 485353, 2010; further: 0% is about no effect; nearly all actives have a fitted effect of over 55% in size; growth read by luminescence after 48 h
Cruzain inh Det: qHTS Assay for Promiscuous and Specific Inhibitors of Cruzain (with detergent). Cruzipain (Trypanosoma cruzi), P25779. purified cruzain, Z-FR-AMC fluorescence, 0.01% Triton. Potency, µM, for the others: max response, negative = inhibition, hits mostly inhibitors. 200,000 tested, 0.43% active. AID 1478, 2009; active means well fitted curve in the direction sought with a large enough effect; inconclusive means small, poorly fitted or top-dose-only effect, or another doubt; inactive means no such curve, though single readings can be large; an effect the other way counts as inactive or inconclusive;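 further: plate controls were neutral wells for no effect and buffer without enzyme for full effect; nearly all actives have a fitted effect of over 40% in size; top concentration of the series not given in the record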
Target sequence (P25779 123-467 limits assumed): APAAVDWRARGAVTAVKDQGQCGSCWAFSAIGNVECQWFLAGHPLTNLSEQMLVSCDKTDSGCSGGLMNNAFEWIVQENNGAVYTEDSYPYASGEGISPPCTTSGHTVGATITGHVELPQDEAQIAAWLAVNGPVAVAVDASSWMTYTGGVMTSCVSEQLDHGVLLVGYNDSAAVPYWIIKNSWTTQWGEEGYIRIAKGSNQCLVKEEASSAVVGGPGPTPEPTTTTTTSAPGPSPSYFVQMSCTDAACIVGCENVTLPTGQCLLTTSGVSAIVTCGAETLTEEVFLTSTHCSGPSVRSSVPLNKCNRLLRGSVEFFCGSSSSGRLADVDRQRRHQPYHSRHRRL
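Steps: dispense cruzain (1.5 nM final) in acetate buffer pH 5.5 with DTT and 0.01% Triton X-100; pin-transfer compounds; incubate 15 min RT; add Z-FR-AMC (2 uM final); read fluorescence every 30 s, using the 60 s intensity change.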
RE007 growth inh: qHTS Assay for Inhibitors of the HIV-1 protein Vpr. S. pombe RE007 Vpr strain, BacTiter-Glo ATP luminescence, 24 h; control for the full effect not named in the record. Potency, µM (titrated, usually from 92.2 µM), inactives show at the top dose activity change, negative = less growth. 360,000 tested, 0.21% active; active = well fitted falling curve with a large enough effect; inconclusive = small, poorly fitted or top-dose-only effect; inactive = no such curve, though single readings can be large or run the other way;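 further: on the % scale 0 is the no-effect control and ±100 the full control effect; nearly all actives have a fitted effect of over 50% in size; the assay follows cell death caused by Vpr and the record does not say whether a fall means rescue or toxicity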
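Fission yeast strain RE007, carrying one chromosomally integrated HIV-1 vpr copy, was seeded at OD 0.01 in PMG+AL medium with 23 nL pinned compound. After 24 h at 30 °C and 99% humidity, viability was read by BacTiter-Glo luminescence.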
Lassa entry inh: qHTS for Inhibitors of binding or entry into cells for Lassa Virus. Potency, µM (top dose mostly 37.9 µM), inactives show at the highest dose activity change, negative = inhibition, actives largely listed as inhibitors. 300,000 tested, 1.2% active. AID 540256, 2011. Lassa virus pseudotype entry inhibition, cell reporter; control for the full effect not named in the record; active means well fitted inhibition curve with a large enough effect; inconclusive means small, poorly fitted or top-dose-only effect, or effect the other way; inactive means flat fitted curve, though single readings scatter; tested in HEK293 cells; further: on the % scale 0 is the no-effect control and ±100 the full control effect; nearly all actives have a fitted effect of over 50% in size; luciferase read-out
Cruzain noTriton: qHTS Assay for Promiscuous and Specific Inhibitors of Cruzain (without detergent); Potency, µM, without a hit: max response, negative = inhibition, hits mostly inhibitors; purified cruzain, Z-FR-AMC fluorescence, no detergent; 200,000 tested, 2.3% active; AID 1476, 2009; active means well fitted curve in the direction sought with a large enough effect; inconclusive means small, poorly fitted or top-dose-only effect, or another doubt; inactive means no such curve, though single readings can be large; an effect the other way counts as inactive or inconclusive;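 further: plate controls were enzyme without inhibitor for no effect and buffer without enzyme for full effect; nearly all actives have a fitted effect of over 40% in size; top concentration of the series not given in the record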
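Detergent-free condition (0.00005% Triton X-100) in acetate buffer pH 5.5 with DTT. 1.5 nM enzyme and compound were pre-mixed 15 min, then 2 uM Z-FR-AMC substrate added; reaction progress from fluorescence change between first and third reads (60 s).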
NS1 function inh: qHTS Assay for Inhibitors of Influenza NS1 Protein Function; Potency, µM (doses to about 46.1 µM), inactives show top-dose activity, positive = more growth; AID 2326, 2010; 270,000 tested, 0.4% active; S. cerevisiae slowed by influenza A NS1, growth recovery by OD600; further: actives are rising curves; nearly all actives have a fitted effect of over 50% in size
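In this qHTS, NS1 from influenza A is expressed in budding yeast, where it slows growth. Cells are switched from glucose to 2% galactose medium (pH 6.0, -URA), treated with compound, and growth recovery is read at OD600.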
Active calls of the source: *; ? = inconclusive; · = no result given; [ ] = another dose, or the depositor's remark. Unless noted, the call rests on the fitted dose curve; in most records, active means well fitted rising curve with a large enough effect; inconclusive means small, poorly fitted or top-dose-only effect; inactive means no such curve, though single readings can be large or run the other way. Potency means the concentration at half of the fitted maximal effect. Outcome played no part in choosing rows; overall some 4.5% were active at least once.

SMILES	2A StopGo	MARV entry inh	SARS PLpro yeast	Cruzain inh Det	RE007 growth inh	Lassa entry inh	Cruzain noTriton	NS1 function inh
CCC/C=N/NC(=O)c1ccccc1O	21.1%	?	-1.9%	·	9.2%	-0.3%[46.1 µM]	·	-0.5%
CCOc1ccc(C(C(=O)NCC2CCCO2)N(CCc2cccc(C)c2)C(=O)c2snc(C(N)=O)c2N)cc1 (configuration not stated)	?	?	-38.9%	·	-10.9%	?	·	13.7%
COc1ccc(Nc2cccccc2=O)cc1	66.1%[activator]	25.0%	0.1%	-3.3%	-9.8%	25.0%	0.9%	-8.5%
COc1ccc(-c2ccc(NS(=O)(=O)c3ccc([N+](=O)[O-])cc3)cc2)nn1	-9.9%	·	-6.0%	·	-16.9%	·	·	-0.4%
C[C@H]([C@@H](N)C(=O)N[C@@H](C(=O)O)[C@@H]1O[C@H](n2ccc(=O)[nH]c2=O)[C@@H](O)[C@H]1O)[C@@H](O)c1ccc(O)cn1	-9.1%	9.8%	2.1%	4.4%	-2.6%[18.4 µM]	3.9%	8.5%	-29.3%
COc1cc(/C=N/NC(=O)CNC(=O)c2ccncc2)ccc1OC(C)=O	-1.8%	·	6.6%	·	9.5%	·	·	15.5%
Cc1cc(NC(=O)c2ccccc2)n(C)n1	5.9%	·	1.6%	·	-2.4%	·	·	-2.5%
COc1cc(C(=O)NCC(=O)N/N=C/c2ccc(-c3cccc([N+](=O)[O-])c3)o2)cc(OC)c1OC	-24.7%	-20.8%[46.1 µM]	-3.3%	·	-6.4%	-27.6%	·	-6.8%
Cc1onc(-c2ccccc2)c1C(=O)NC(=S)Nc1sc2c(c1C#N)CCCC2	-21.0%	-1.9%	-27.9%	-7.6%	-3.5%	5.2%	12.6µM*	21.7%
Cn1c(=O)c2c(ncn2CC(=O)NC2CCCCC2)n(C)c1=O	?	·	-3.2%	·	3.6%	·	·	1.9%
CC(=O)Nc1ccc(NC(=O)c2ccc3c(c2)CCN3S(=O)(=O)c2ccc(Cl)cc2)cc1	-5.4%	?	·	0.2%	·	-10.9%[46.1 µM]	8.0%	·
COc1cccc2c(=O)n(CC(=O)N3CCCc4ccccc43)ccc12	-18.9%	·	0.8%	2.2%	5.4%	·	2.2%	-5.2%
O=c1oc2ccccc2c(N2CCCC2)c1[N+](=O)[O-]	1.8%	4.2%[46.1 µM]	1.5%	·	7.4%	-18.9%[46.1 µM]	·	·
Cn1c(CNc2ccc(Br)cc2)nc2ccccc21	-1.9%	?	-4.5%	·	?	?	·	-43.9%
CCC(CC)NC(=O)c1cc(OC)c(OC)c(OC)c1	-20.8%	-9.4%	1.8%	2.9%	-6.4%	-5.4%	2.5%	6.1%
Cc1cc(Br)ccc1NC(=O)c1ccco1	46.0%[activator]	-1.9%	-7.8%	·	37.9%	?	·	-22.4%
CN(Cc1ccc(Cl)cc1)C(=O)CNC(=O)C12CC3CC(CC(C3)C1)C2	?	?	-0.8%	·	8.7%	?	·	·
c1cc(CNC2C3CC4CC(C3)CC2C4)ccn1 (configuration not stated)	-10.8%	-12.2%[46.1 µM]	0.1%	·	0.1%	2.3%[46.1 µM]	·	·
CN(C)C(CNC(=O)c1ccc2ccccc2c1)c1ccco1 (configuration not stated)	60.5%[activator]	8.3%[46.1 µM]	-6.6%	·	-16.4%	13.5%	·	·
CC(c1nnc(SCC(=O)Nc2cccnc2Cl)n1Cc1ccccc1)N(C)C (configuration not stated)	-14.7%	-1.8%[46.1 µM]	0.3%	·	4.4%	?	·	-1.2%
O=C(NCc1ccco1)c1cc([N+](=O)[O-])cc([N+](=O)[O-])c1	-19.8%	-4.7%	1.3%	-3.1%	5.4%	-2.2%	3.3%	18.4%
CC1CCC(N2CCN(c3ccc([N+](=O)[O-])cc3)CC2)CC1 (configuration not stated)	-9.4%	-19.6%	·	·	-18.9%	-5.9%	·	-3.5%
Cc1c(S(=O)(=O)NCc2ccccc2)c(=O)n(C)c(=O)n1C	-6.2%	·	-0.1%	·	15.5%	·	·	-6.1%
Cc1ccc(C)n1C(CC(=O)O)c1ccc(C#N)cc1 (configuration not stated)	-5.5%	2.9%[46.1 µM]	-0.3%	·	6.9%	-10.2%[46.1 µM]	·	13.3%
CCN1C(=O)C2(C(C(=O)c3cc4ccccc4o3)=C(O)C(=O)N2CCCN(C)C)c2ccccc21 (configuration not stated)	-29.4%	1.0%[46.1 µM]	-0.2%	·	9.5%	?	·	-0.3%
CCOc1cc(/C=N/NC(=O)COc2ccccc2C)ccc1OC(=O)c1cccs1	·	-1.5%	-0.5%	0.0%	4.8%	?	-26.7%	29.0%
CCOCCCNC(=O)c1cc(-c2cccnc2)nc2ccc(S(=O)(=O)N3CCC(C)CC3)cc12	2.5%	·	3.2%	·	10.5%	·	·	-13.1%
COCCNC(=O)CN1C(=O)COc2ccc(S(=O)(=O)N3CCOCC3)cc21	-12.6%	4.4%[46.1 µM]	·	1.5%	·	?	-19.7%	·
COc1ccc(CCN2CNc3c(c(=O)n(C)c(=O)n3C)C2)cc1	7.1%	-1.2%	-1.0%	1.6%	7.9%	14.7%	-2.9%	3.5%
O=C(COC(=O)c1cccc(S(=O)(=O)NCc2ccccc2)c1)c1ccccc1	-11.3%	3.2%	16.3%	-6.5%	14.2%	-18.5%	9.5%	14.3%
O=C(CSc1cccc(C(F)(F)F)c1)Nc1ccc(Cl)cc1Cl	-4.4%	-14.0%	-9.2%	-5.9%	5.0%	-3.5%	1.9%	-5.0%
O=C(C1=C[C@H](c2ccc(Br)cc2)C[C@H](OCCCCO)O1)N1CCOCC1	-14.0%	·	-1.8%	·	-8.8%	·	·	-1.6%
O=C(O)CCCCCNC(=O)CCn1cnc2ccccc2c1=O	9.8%	1.6%	1.9%	3.4%	4.4%	-5.4%	-8.4%	-4.4%
C=C1CC(COc2cc(=O)oc3ccccc23)(c2ccccc2)OC1=O (configuration not stated)	14.1µM*	?	·	·	-23.0%	-18.9%	·	·
O=C1CCc2cc(S(=O)(=O)N3CCCC3C(=O)N3CCN(c4ccccc4)CC3)ccc2N1 (configuration not stated)	0.0%	1.4%	-6.5%	-2.5%	-4.5%	·	8.1%	-0.7%
CC(=O)Nc1nnc(-c2ccc(Cl)s2)o1	17.3%	·	2.6%	-1.3%	-7.1%	·	-5.0%	1.6%
CCCOc1cccc(C(=O)Nc2ccccc2C(=O)N2CCN(C)CC2)c1	-8.3%	22.2%	-4.0%	·	9.4%	3.1%	·	-3.5%
COC(=O)c1ccccc1OCC(=O)N1CCN(c2ccc(F)cc2)CC1	-24.8%	11.2%	3.7%	2.9%	-2.0%	8.1%	2.3%	-0.4%
O=c1cc(-c2ccccc2O)nc(-c2ccccc2)[nH]1	31.2%[activator]	12.1%	·	·	-13.2%	-2.1%	·	·
CC(=O)c1ccc(NC(=O)CSc2nnc(N)s2)cc1	59.8%[activator]	?	·	-7.5%	·	?	-12.7%	·
S=C(Cc1cccnc1)N1CCOCC1	-9.3%	?	-22.3%	?	4.4%	?	?	-13.3%
COc1cccc(C2C(C(=O)Nc3ccccc3)=C(C)N=c3s/c(=C/c4ccc(OCC(=O)O)cc4)c(=O)n32)c1 (configuration not stated)	-23.4%	14.3%	-1.3%	-16.6%	16.3%	9.8%	?	?
O=C(Nc1cccc2ccccc12)N1CCN(Cc2ccc3c(c2)OCO3)CC1	-14.9%	4.7%	-2.1%	-5.4%	-10.5%	1.1%	4.1%	-7.4%
CCOc1ccccc1NC(=O)CSc1nnc(-c2ccco2)o1	·	-0.2%	-0.2%	1.9%	10.4%	4.6%	-3.0%	-49.3%
O=C(NCc1ccccn1)C(=O)NCC1OCCCN1S(=O)(=O)c1cc(F)ccc1F (configuration not stated)	-19.3%	3.4%	-1.3%	·	-13.6%	6.8%	·	-2.2%
COc1cc(C(=O)OCC(=O)Nc2cc(C)on2)ccc1OCc1ccccc1Cl	3.1%	?	0.8%	1.1%	-9.3%	?	?	-0.3%
Cc1ccc(C(=O)c2cc3c(cc2[N+](=O)[O-])OCCO3)cc1	36.9%[activator]	-19.7%	0.9%	·	-3.6%	0.9%	·	-4.7%
CCN(CC)CCn1c(=S)[nH]c2cc(C(=O)N3CC(C)CC(C)C3)ccc2c1=O (configuration not stated)	-1.0%	2.3%[46.1 µM]	1.2%	·	-10.5%	13.2%[46.1 µM]	·	4.1%
COc1ccc(C(C(=O)NCC2CCCO2)N(Cc2cccs2)C(=O)c2snc(C(N)=O)c2N)cc1OC (configuration not stated)	-5.0%	10.1%[46.1 µM]	1.7%	·	-3.7%	-12.1%[46.1 µM]	·	-1.7%
CCOC(=O)c1cnc(SC)nc1Nc1cccc(F)c1	-21.2%	-20.9%	0.1%	-8.2%	5.2%	-11.6%	?	0.3%
O=[N+]([O-])c1cnc(N2CCCCC2)c([N+](=O)[O-])c1	?	30.0%	3.3%	-15.5%	-24.5%	7.0%	6.6%	-3.5%
CC1Cc2ccccc2N1C(=O)CSc1nnc(CNc2ccccc2)o1 (configuration not stated)	4.7%	9.7%	-2.8%	1.6%	5.4%	-4.4%	-10.3%	-12.1%
O=C(Nc1cc(=O)c2ccccc2o1)N1CCCCC1	-14.9%	-27.8%	-4.2%	5.0%	1.7%	?	22.8%	4.5%
O=C(c1ccco1)c1nnn(Cc2ccccc2)c1-c1ccccc1	-12.8%	-21.8%	·	0.5%	13.6%	?	-6.1%	-10.2%
CC1CN(C(=O)N(C)C)CCN1C(=O)N(C)C (configuration not stated)	-13.0%	-8.0%	2.3%	3.0%	10.7%	2.2%	-7.9%	3.9%
CC(=O)N1CCN(CCN(CC2C(C)C=C(C)CC2C)C(C)=O)CC1 (configuration not stated)	0.0%	22.8%[46.1 µM]	0.6%	-1.1%	21.1%	-2.7%	7.5%	?
COc1ccc(NC(=O)CSc2nnc(Cc3cccn3C)n2-c2ccc(C)cc2)cc1OC	10.0%	8.8%	1.6%	0.1%	4.5%	-24.0%[14.3 µM]	?	-52.6%
